Screens as filed in PubChem BioAssay.
Cruzain inh noDet: blocks cruzain activity in detergent-free assay | P25779 | purified cruzain, Z-FR-AMC fluorescence, no detergent | Potency, µM, for inactives: max response, negative = inhibition, hits mostly inhibitors | 200,000 tested, 2.3% active; active means well fitted curve in the direction sought with a large enough effect; inconclusive means small, poorly fitted or top-dose-only effect, or another doubt; inactive means no such curve, though single readings can be large; an effect the other way counts as inactive or inconclusive;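 further: plate controls were enzyme without inhibitor for no effect and buffer without enzyme for full effect; nearly all actives have a fitted effect of over 40% in size; top concentration of the series not given in the record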
Target sequence (P25779 123-467 limits assumed): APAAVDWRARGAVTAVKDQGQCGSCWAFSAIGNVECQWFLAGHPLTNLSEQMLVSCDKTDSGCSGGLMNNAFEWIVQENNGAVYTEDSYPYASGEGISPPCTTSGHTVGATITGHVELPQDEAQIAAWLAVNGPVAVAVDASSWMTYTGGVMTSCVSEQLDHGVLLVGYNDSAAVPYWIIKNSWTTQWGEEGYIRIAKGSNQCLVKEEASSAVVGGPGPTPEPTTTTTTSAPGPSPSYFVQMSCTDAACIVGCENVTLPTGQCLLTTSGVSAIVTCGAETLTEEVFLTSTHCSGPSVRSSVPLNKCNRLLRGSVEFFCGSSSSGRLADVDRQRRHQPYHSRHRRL
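Purified cruzain at 1.5 nM, pre-incubated 15 min with compound at room temperature in 100 mM sodium acetate pH 5.5, 5 mM DTT, 0.00005% Triton X-100. Reaction started with 2 uM Z-FR-AMC; AMC fluorescence increase over 60 s gives rate.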
SARS PLpro yeast: SARS-CoV PLP inhibition in yeast. S. cerevisiae expressing SARS-CoV PLpro, growth rescue; control for the full effect not named in the record. Potency, µM (top dose mostly 32.9 µM), for inactives: top-dose activity, positive = growth rescue. 330,000 tested, 0.19% active. AID 485353; further: 0% is about no effect; nearly all actives have a fitted effect of over 55% in size; growth read by luminescence after 48 h
2A StopGo: lowers the luciferase signal of an FMDV 2A StopGo reporter | human cells with a luciferase reporter of 2A StopGo recoding; control for the full effect not named in the record | Potency, µM (series often up to 57.9 µM), inactives show at the highest dose signal change, negative = less light | 410,000 tested, 1.2% active | AID 1159524; active = well fitted falling curve with a large enough effect; inconclusive = small, poorly fitted or top-dose-only effect; inactive = no such curve, though single readings can be large or run the other way; tested in HEK293T cells; further: on the % scale 0 is the no-effect control and ±100 the full control effect; nearly all actives have a fitted effect of over 45% in size; luciferase light after 4 h
LASV entry inh: inhibitors of Lassa virus binding or cell entry; Lassa virus pseudotype entry inhibition, cell reporter; control for the full effect not named in the record; Potency, µM (highest dose often 37.9 µM), for inactives: top-dose activity change, negative = inhibition, actives largely listed as inhibitors; 300,000 tested, 1.2% active; active means well fitted inhibition curve with a large enough effect; inconclusive means small, poorly fitted or top-dose-only effect, or effect the other way; inactive means flat fitted curve, though single readings scatter; tested in HEK293 cells; further: on the % scale 0 is the no-effect control and ±100 the full control effect; nearly all actives have a fitted effect of over 50% in size; luciferase read-out
MARV entry inh: blocks Marburg virus binding to or entry into cells. Potency, µM (top dose mostly 37.8 µM), without a hit: at the top dose activity change, negative = inhibition, actives largely listed as inhibitors. AID 540276. 300,000 tested, 1.8% active. Marburg virus pseudotyped entry inhibition, cell reporter; control for the full effect not named in the record; about a third of the inactives were read at about 46 µM; active = well fitted inhibition curve with a large enough effect; inconclusive = small, poorly fitted or top-dose-only effect, or effect the other way; inactive = flat fitted curve, though single readings scatter; tested in HEK293 cells; about a fifth of its hits are not listed in these tables; further: on the % scale 0 is the no-effect control and ±100 the full control effect; luciferase read-out
NS1 function inh: inhibitors of influenza NS1 protein function; S. cerevisiae slowed by influenza A NS1, growth recovery by OD600; Potency, µM (doses to about 46.1 µM), for the others: at the highest dose activity, positive = more growth; 270,000 tested, 0.4% active; AID 2326; further: actives are rising curves; nearly all actives have a fitted effect of over 50% in size
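Recovery from NS1-induced slow growth read by OD600 in budding yeast switched to galactose assay medium (pH 6.0, -URA) at 1:100 dilution. Compound 23 nl per well; the matching strain lacking NS1 serves as control.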
RE007 growth inh: less growth of the S. pombe RE007 Vpr strain | S. pombe RE007 Vpr strain, BacTiter-Glo ATP luminescence, 24 h; control for the full effect not named in the record | AID 651644 | Potency, µM (highest dose often 92.2 µM), for the others: at the highest dose activity change, negative = less growth | 360,000 tested, 0.21% active; active = well fitted falling curve with a large enough effect; inconclusive = small, poorly fitted or top-dose-only effect; inactive = no such curve, though single readings can be large or run the other way;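 further: on the % scale 0 is the no-effect control and ±100 the full control effect; nearly all actives have a fitted effect of over 50% in size; the assay follows cell death caused by Vpr and the record does not say whether a fall means rescue or toxicity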
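Fission yeast strain RE007, carrying one chromosomally integrated HIV-1 vpr copy, was seeded at OD 0.01 in PMG+AL medium with 23 nL pinned compound. After 24 h at 30 °C and 99% humidity, viability was read by BacTiter-Glo luminescence.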
Cruzain Triton: inhibitors of Trypanosoma cruzi cruzain with detergent; purified cruzain, Z-FR-AMC fluorescence, 0.01% Triton; Potency, µM, for the others: max response, negative = inhibition, most hits filed as inhibitors; 200,000 tested, 0.43% active; AID 1478; active means well fitted curve in the direction sought with a large enough effect; inconclusive means small, poorly fitted or top-dose-only effect, or another doubt; inactive means no such curve, though single readings can be large; an effect the other way counts as inactive or inconclusive;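 further: plate controls were neutral wells for no effect and buffer without enzyme for full effect; nearly all actives have a fitted effect of over 40% in size; top concentration of the series not given in the record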
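Cysteine protease activity tested under reducing, mildly acidic conditions (100 mM sodium acetate pH 5.5, 5 mM DTT) plus 0.01% Triton X-100. Cruzain 1.5 nM; substrate Z-FR-AMC 2 uM; 15 min compound preincubation at room temperature.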
Numbers without * were called inactive; u = inconclusive; x = not tested or not shown; & = joins results of further samples; [ ] = remark or other dose. Unless noted, the call rests on the fitted dose curve; in most records, active means well fitted rising curve with a large enough effect; inconclusive means small, poorly fitted or top-dose-only effect; inactive means no such curve, though single readings can be large or run the other way. Potency means the concentration at half of the fitted maximal effect. Hits appear at their usual frequency. Share with any hit: about 4.7%.

SMILES	Cruzain inh noDet	SARS PLpro yeast	2A StopGo	LASV entry inh	MARV entry inh	NS1 function inh	RE007 growth inh	Cruzain Triton
Cc1ccc(CC(=O)NNC(=O)c2cccs2)cc1C	x	-1%	23%	9%	21%[46.1 µM]	x	0%	x
COc1ccc(N2CC(C(=O)Nc3nc4ccccc4s3)CC2=O)cc1 (stereo not given)	x	1%	9%	x	x	-2%	0%	x
CC1CCCC(NS(=O)(=O)c2cc(Br)cnc2N)C1C (stereo not given)	x	-7%	13%	-23%[46.1 µM]	u	-24%	-6%	x
COc1ccc(C(=O)Nc2ccc(NC(=O)C3CC3)cn2)cc1	x	3%	26%	23%	17%[46.1 µM]	-11%	-9%	x
COc1ccc2cc(C(=O)C3CCCN(C(=O)CSc4nnc(C)o4)C3)ccc2c1 (stereo not given)	x	1%	-23%	-23%[46.1 µM]	u	1%	2%	x
CCCS(=O)(=O)N1CCC(N2CCN(Cc3ccc(C)cc3)C(=O)C2=O)CC1	4%	x	-12%	-7%[46.1 µM]	x	x	x	-0.1%
N#Cc1c(Nc2cccc(F)c2)sc(C(=O)c2ccc(Cl)cc2)c1N	-23%	x	41%[activator]	6%[46.1 µM]	14%[46.1 µM]	x	x	-14%
O=C(Nc1cc(C(F)(F)F)ccc1N1CCOCC1)C1Cc2ccccc2CN1C(=O)c1ccco1 (stereo not given)	u	-6%	-8%	2%	u	-1%	3%	u
OCCC1CN(Cc2cnc(-c3ccccc3)s2)CCN1C1CCCC1 (stereo not given)	x	0%	-27%	0%	u	-1%	-6%	x
Cc1ccc(NC(=O)CSCc2c(C)noc2C)cc1C	-5%	0%	20%	u	-18%[46.1 µM]	-13%	13%	-1.2%
COC(=O)c1cc(Cl)nc2ccccc12	x	-6%	-7%	0%	-10%	10%	-2%	x
NC(=O)NCC(c1ccccc1)C1CCCCC1 (stereo not given)	x	-5%	-11%	x	x	u	10%	x
CCOc1ccc(NC(=O)C2C(c3ccccc3)C2(Cl)Cl)cc1 (stereo not given)	x	-12%	-7%	-26%[46.1 µM]	21%[46.1 µM]	-11%	-21%	x
CCOC(=O)CC(=O)CSc1nc2nc(C)cc(C)n2n1	-10%	2%	x	u	3%	9%	-1%	4.0%
CCCn1c(=O)n(-c2ccccc2)c(=O)c2sc3ccccc3c21	-6%	x	0%	1%[46.1 µM]	0%[46.1 µM]	x	x	-1.3%
CCCCOc1ccc(-c2cc3c(=O)n(CC(=O)Nc4ccc(Cl)cc4Cl)ccn3n2)cc1	-14%	x	-6%	-5%[46.1 µM]	1%[46.1 µM]	x	x	7.7%
O=C(Nc1ccc(NC(=O)c2ccco2)cc1)c1ccc2c(c1)OCCO2	x	-1%	30%[activator]	-26%	-10%[46.1 µM]	x	u	x
Cc1ccc2[nH]c(=O)c3cc(C(=O)NCCCN4CCC(C)CC4)sc3c2c1	2%	x	1%	x	u	x	x	-16%
COc1cc(C(C(=O)NC2CCCC2)N(Cc2ccco2)C(=O)c2snc(C(N)=O)c2N)cc(OC)c1OC (stereo not given)	x	3%	-20%	-3%	-9%[46.1 µM]	-16%	-10%	x
CN(C)c1nc(=NCc2cccs2)ss1	x	x	u	u	u	x	u	x
O=[N+]([O-])c1ccc(Cl)c(/C=N/N2CCN(Cc3ccccc3Cl)CC2)c1	1%	-1%	u	-14%	-17%	-4%	3%	1.7%
O=C1c2ccccc2C(=O)N1CCC(=O)N1CCCc2ccccc21	5%	-7%	15%	u	1%	-9%	-18%	-0.2%
COc1ccc(NC(=O)c2ccco2)cc1NC(=O)c1ccc(C#N)cc1F	4%	-2%	u	-11%[46.1 µM]	1%&1%[46.1 µM]	-5%	15%	5.4%
Cc1ccc(CN2CCCn3nc(C(=O)NC(C)C)cc3C2=O)cc1	6%	x	12%	u	x	x	x	-2.4%
Cc1ccc(-c2nnc3c4ccccc4c(C)nn23)cc1NC(=O)c1cccc(Br)c1	0%	x	-7%	19%[46.1 µM]	0%[46.1 µM]	x	x	-0.8%
Cc1cccc(NC(=S)N/N=C/c2cccc([N+](=O)[O-])c2)c1	1%	-3%	13%	-21%	-1%	0%	15%	-14%
O=C(Nc1nnc(SCc2ccc(Cl)cc2Cl)s1)C1COc2ccccc2O1 (stereo not given)	u	3%	-3%	x	-5%	3%	-10%	-6.1%
COc1cc(Cl)c(C)cc1NC(=O)c1ccc(NS(=O)(=O)c2ccc(F)c(F)c2)cc1	x	0%	-28%	12%	3%[46.1 µM]	9%	12%	x
Cc1noc(C)c1COC(=O)COc1cccc2c1OC(C)(C)C2	2%	8%	-5%	23%	7%	-9%	-3%	3.6%
O=C(CN1C(=O)NC2(CCCC2)C1=O)Nc1nc(-c2ccccc2)cs1	x	4%	-13%	19%	4%[46.1 µM]	x	13%	x
CC1CCCCC1NC(=O)COC(=O)c1ccc(S(=O)(=O)NCc2ccco2)cc1 (stereo not given)	-8%	-5%	10%	15%	8%	-1%	7%	3.4%
O=C(C(=O)N1CCN(c2ccccc2F)CC1)c1c[nH]c2ccccc12	x	7%	37%[activator]	6%	0%[46.1 µM]	x	10%	x
O=C(c1ccc(Cl)s1)N1CCCC(N2CCN(c3ccc(F)cc3)CC2)C1 (stereo not given)	x	-1%	u	x	x	4%	-7%	x
COc1cccc(C(=O)NC(=O)Nc2cc(C)on2)c1	x	-3%	78%[activator]	x	-26%[46.1 µM]	x	6%	x
CCCCC[n+]1ccn(-c2nc3ccccc3nc2[N-]S(=O)(=O)c2ccccc2)c1	x	1%	29%	-1%	-8%	-1%	-2%	x
Cc1oc2ccc(OC(=O)c3cccs3)cc2c1C(=O)OC(C)C	-8%	-79%	24%	1%	-1%	-40%	-10%	-6.3%
CCOc1ccccc1/C=C(/NC(=O)c1ccccc1)C(=O)N(CC)CC	3%	21%	-4%	u	-16%	2%	11%	-2.3%
Cc1ccc(C)c(S(=O)(=O)N2CCN(C(=O)Cc3ccsc3)CC2)c1	x	0%	4.5µM*	-29%	22%	-5%	4%	x
COc1ccc([N+](=O)[O-])cc1NC(=O)C(C)OC(=O)C1CCC1 (stereo not given)	x	0%	-19%	14%	2%	x	14%	x
CCOc1cccc(C(=O)Nc2ccc3oc(-c4cccnc4)nc3c2)c1	15%	7%	u	0%[46.1 µM]	-7%&-7%[46.1 µM]	-2%	2%	-8.8%
Cc1ccc(NC(=O)CN2C(=O)C(C)(C)c3cc(S(=O)(=O)N4CCCCC4)ccc32)c(Br)c1	3%	x	62%[activator]	u	x	x	x	0.4%
C/C(=N\NC(=S)NCc1ccccc1)c1cccc(Br)c1	x	-2%	52%[activator]	u	-19%[46.1 µM]	-4%	-18%	x
O=C(COc1ccc(Br)cc1)Nc1ccc(NC(=O)c2ccccc2)cc1	x	2%	40%[activator]	-1%	-29%	-9%	-10%	x
COc1ccc(C2CC(c3cccs3)=NN2C(=O)c2ccco2)cc1OC (stereo not given)	x	1%	-8%	-26%[46.1 µM]	u	1%	-6%	x
O=C(Cn1[nH]c(=O)c2ccccc2c1=O)OCC(=O)N(Cc1ccccc1)Cc1ccccc1	-15%	1%	-15%	5%	6%[46.1 µM]	11%	-2%	-4.7%
CCOC(=O)c1ccc(NC(=O)CCCc2nc(-c3cc(OC)c(OC)c(OC)c3)no2)cc1	u	x	-1%	19%[46.1 µM]	-7%[46.1 µM]	x	x	-5.8%
Cc1cc(NC(=O)COC(=O)C2CSC3(C)CCC(=O)N23)ccc1Br (stereo not given)	x	-8%	-17%	2%	25%	x	24%	x
CNc1ccc2nnc(C(F)(F)C(F)(F)C(F)(F)F)n2n1	x	1%	19%	0%[46.1 µM]	7%[46.1 µM]	6%	2%	x
O=c1[nH]c(CS(=O)(=O)c2ccccc2)nc2ccccc12	-4%	-6%	-22%	7%	-2%&-2%[46.1 µM]	0%	5%	-3.5%
CCOC(=O)c1ccc(Nc2nnc(C(C)(C)C)c(=O)[nH]2)cc1	24%	3%	u	u	u	-15%	3%	3.3%
CC(=O)OCC(=O)C1(O)CCC2C3CCC4=CC(=O)CCC4(C)C3(Cl)C(O)CC21C (stereo not given)	x	x	-4%	5%[46.1 µM]	u	x	5%	x
COc1ccc(C(C[N+](=O)[O-])c2c(C)cc3ccccn23)cc1 (stereo not given)	x	0%	-25%	-29%	u	x	u	x
COc1cc2c(cc1[N+](=O)[O-])-c1ccccc1C2	x	x	19%	18%[46.1 µM]	u	x	u	x
CCOC(=O)/C(C#N)=C1\CC2CCC1(C)C2(C)C (stereo not given)	x	0%	-16%	u	12%[14.2 µM]	x	-3%	x
FC(F)(F)c1cccc(CN2CCC(c3cc(-c4cccs4)n[nH]3)CC2)c1	x	-10%	-13%	u	u	x	-3%	x
COc1cc(C(=O)Nc2nc(C)c(Cc3ccc4c(c3)OCO4)s2)cc(OC)c1OC	u	3%	-29%	u	-42%	u	-22%	-8.2%
CC1CN(C(=O)COC(=O)c2ccc(O)cc2)CC(C)O1 (stereo not given)	x	2%	7%	-2%	16%	10%	0%	x
CN=C(Nc1ccccc1OC)SC1CC(=O)N(c2ccc(C(=O)OC)cc2)C1=O (stereo not given)	27%	-6%	-12%	11%	-12%&4%	16%	6%	-2.4%
Cc1onc(-c2ccccc2)c1C(=O)Nc1sc2c(c1C#N)CCC2	-21%	-6%	u	u	4.6µM*	-15%	-17%	-5.2%
COCCNC(=S)Nc1ccc(Cl)c(Cl)c1	x	0%	44%[activator]	1%	13%	-3%	-8%	x
N#Cc1c(Cl)nc(SCc2ccccc2)nc1-c1ccccc1	-5%	8%	x	x	-7%	u	x	-13%
CC(C)=CCCC(C)NC(=O)NC1CCCCC1 (stereo not given)	7%	u	36%[activator]	u	7%	-6%	-13%	-0.1%
O=C(C1CC(=O)N(c2ccc(Cl)cc2)C1)N1CCC(c2nc3ccccc3[nH]2)CC1 (stereo not given)	x	0%	-7%	6%	11%	x	-13%	x
